Polio RdRp inh: inhibitors of poliovirus RNA polymerase binding and polymerization. P03300. poliovirus polymerase elongation, fluorescence polarization; hits give low values. % elongation, % (compound at 16.7 µg/mL). hit rate 0.66% among 150,000. AID 588519; in the data active = % elongation below about 90%; also: some results filed as inactive read as strong as hits
Target sequence (P03300 1749-2209 limits assumed): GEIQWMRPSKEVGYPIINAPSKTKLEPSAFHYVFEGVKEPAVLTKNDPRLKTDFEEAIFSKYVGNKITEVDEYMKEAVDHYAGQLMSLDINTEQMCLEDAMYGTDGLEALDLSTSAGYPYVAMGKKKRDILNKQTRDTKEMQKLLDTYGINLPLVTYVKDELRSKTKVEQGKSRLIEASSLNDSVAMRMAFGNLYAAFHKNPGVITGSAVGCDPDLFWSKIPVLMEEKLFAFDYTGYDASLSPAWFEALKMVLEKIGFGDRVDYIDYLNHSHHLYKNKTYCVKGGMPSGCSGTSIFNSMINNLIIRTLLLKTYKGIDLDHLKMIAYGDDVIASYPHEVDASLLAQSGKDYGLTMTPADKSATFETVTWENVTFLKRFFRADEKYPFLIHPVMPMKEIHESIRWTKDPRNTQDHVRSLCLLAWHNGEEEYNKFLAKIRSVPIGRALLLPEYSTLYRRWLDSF
MbtI inh: MbtI salicylate synthase inhibition; P9WFX0; hit rate 0.89% among 100,000; inhibition, %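 (about 17 µg/mL by stock and volumes)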; purified MbtI enzyme, fluorescence intensity read-out;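 active = above 50% in both replicates, above 80% if mildly self-fluorescent; inactive = the rest, strongly fluorescent compounds included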;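 also: 0% = mean of negative and 100% = mean of positive controls; one replicate is shown; some compounds called inactive have numbers as strong as hits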
Mtb MenB inh: inhibitors of Mycobacterium tuberculosis MenB enzyme; MenB enzyme assay, absorbance read-out; some hits fall short of the stated cut; inhibition, %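 (about 12 µg/mL by stock and volumes)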; P9WNP5; hit rate 0.43% among 100,000;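 active = mean of two replicates above 30%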;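 also: 0% = no compound and 100% = wells with inactive enzyme; the first replicate is given; strong numbers were not always called active; inactives centre near -10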
Target sequence (P9WNP5 whole entry, looked up): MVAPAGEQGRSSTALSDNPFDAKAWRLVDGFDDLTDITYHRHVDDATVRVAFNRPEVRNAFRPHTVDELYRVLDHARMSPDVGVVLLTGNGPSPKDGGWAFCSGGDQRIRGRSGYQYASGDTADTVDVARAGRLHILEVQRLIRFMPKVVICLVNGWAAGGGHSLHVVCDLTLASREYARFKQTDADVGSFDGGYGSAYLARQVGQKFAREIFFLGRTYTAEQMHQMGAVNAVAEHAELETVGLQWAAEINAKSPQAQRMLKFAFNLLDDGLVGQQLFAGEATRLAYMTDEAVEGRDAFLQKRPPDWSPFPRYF
Polio RdRp inh intensity: further read-out of Polio RdRp inh, marked with its call; % elongation; measured here: total intensity read-out; formula for this scale not given here;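 total fluorescence in place of polarization; lower means less elongation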
* marks the source's active call; other numbers are inactive results; & = joins results of further samples.

A first look (four entries):
Results for Fc1ccc(Cn2[nH]nnc2=S)cc1 ?
Polio RdRp inh: 96; MbtI inh: 69*; Mtb MenB inh: -17; Polio RdRp inh intensity: 105

How did CCn1c(Cn2cc(S(=O)(=O)N3CCCC3)ccc2=O)nc2cc(S(=O)(=O)N(C)C)ccc21 do in these assays?
Polio RdRp inh: 106; MbtI inh: -11; Mtb MenB inh: -19; Polio RdRp inh intensity: 112

What do the screens show for `C=CCn1c(C)cc(C(=O)Cn2c(CN3CCOCC3)nc3ccccc3c2=O)c1C`?
Polio RdRp inh: 103; MbtI inh: -7; Mtb MenB inh: 3; Polio RdRp inh intensity: 102

How did COc1ccc(CN2CC(C(=O)NCCCN3CCCCCC3)CC2=O)cc1 (stereo unspecified) do in these assays?
Polio RdRp inh: 102; MbtI inh: 0; Mtb MenB inh: -22; Polio RdRp inh intensity: 104

The list itself, from the start:
Results for Fc1ccc(Cn2[nH]nnc2=S)cc1 ?
Polio RdRp inh: 96; MbtI inh: 69*; Mtb MenB inh: -17; Polio RdRp inh intensity: 105

How did CCn1c(Cn2cc(S(=O)(=O)N3CCCC3)ccc2=O)nc2cc(S(=O)(=O)N(C)C)ccc21 do in these assays?
Polio RdRp inh: 106; MbtI inh: -11; Mtb MenB inh: -19; Polio RdRp inh intensity: 112

What do the screens show for `C=CCn1c(C)cc(C(=O)Cn2c(CN3CCOCC3)nc3ccccc3c2=O)c1C`?
Polio RdRp inh: 103; MbtI inh: -7; Mtb MenB inh: 3; Polio RdRp inh intensity: 102

How did COc1ccc(CN2CC(C(=O)NCCCN3CCCCCC3)CC2=O)cc1 (stereo unspecified) do in these assays?
Polio RdRp inh: 102; MbtI inh: 0; Mtb MenB inh: -22; Polio RdRp inh intensity: 104

What do the screens show for `O=C(O)CSCC(=O)Nc1nc(SCc2ccc(Cl)cc2)n[nH]1`?
Polio RdRp inh: 101; MbtI inh: -8; Mtb MenB inh: 4; Polio RdRp inh intensity: 98

Results for CCC(=O)Nc1cc2c3c(c1)CCN3C(=O)CC2 ?
Polio RdRp inh: 101; MbtI inh: 4; Mtb MenB inh: -9; Polio RdRp inh intensity: 101

Results for CCN(CC)CCNC1CCN(CC)CC1 ?
Polio RdRp inh: 100; MbtI inh: 4; Mtb MenB inh: 12; Polio RdRp inh intensity: 105

Results for CCn1c(N)c(C(N)=O)sc1=S ?
Polio RdRp inh: 111; Mtb MenB inh: -43; Polio RdRp inh intensity: 110

Results for O=C(Nc1ccc2c(c1)OCCO2)N1CCN2CCCCC2C1 (stereo unspecified) ?
Polio RdRp inh: 104; MbtI inh: -19; Mtb MenB inh: -5; Polio RdRp inh intensity: 103

How did CC(=O)Nc1[nH]c2c(c1C#N)CCCCC2 do in these assays?
Polio RdRp inh: 103; Mtb MenB inh: -10; Polio RdRp inh intensity: 105

What do the screens show for `CCOC(=O)N1CCN(C(=O)Cc2c(C(=O)O)n(C)c3ccccc23)CC1`?
Polio RdRp inh: 100; MbtI inh: 43; Mtb MenB inh: 11; Polio RdRp inh intensity: 100

What do the screens show for `CC(C)C1C(=O)OC2(C)CC(C)(C)NC(=S)N12` (stereo unspecified)?
Polio RdRp inh: 100; Mtb MenB inh: -10; Polio RdRp inh intensity: 110

What do the screens show for `O=C(Nc1ccc(Cl)cc1)N1CCCN(Cc2ccccc2F)C1`?
Polio RdRp inh: 102; MbtI inh: -6; Mtb MenB inh: -7; Polio RdRp inh intensity: 105

What do the screens show for `Cc1cccc2c1-c1sc(C(=O)NCCN3CCCCC3C)cc1CO2` (stereo unspecified)?
Polio RdRp inh: 108; MbtI inh: 26; Mtb MenB inh: 3; Polio RdRp inh intensity: 126

How did Cc1ccc2nc(-c3ccc(C(F)(F)F)cc3)oc2c1 do in these assays?
Polio RdRp inh: 100; MbtI inh: -17; Mtb MenB inh: -2; Polio RdRp inh intensity: 103

Results for O=C(N/N=C/c1sc(N2CCCCC2)nc1-c1cccs1)c1ccccc1 ?
Polio RdRp inh: 119; MbtI inh: -1; Mtb MenB inh: -58; Polio RdRp inh intensity: 140

Results for COc1ccc(-c2c(C)c3ccc(OC(=O)N4CCOCC4)cc3oc2=O)cc1 ?
Polio RdRp inh: 100; MbtI inh: 102; Mtb MenB inh: -6; Polio RdRp inh intensity: 101

What do the screens show for `COCCNC(=O)c1cccc2c1SCCC2=O`?
Polio RdRp inh: 99; MbtI inh: 38; Mtb MenB inh: -5; Polio RdRp inh intensity: 101

How did CC(c1ccccc1)C1OCC(CN2CCCCC2)O1 (stereo unspecified) do in these assays?
Polio RdRp inh: 103; MbtI inh: -8; Mtb MenB inh: -6; Polio RdRp inh intensity: 101

What do the screens show for `CC(C)C(NC(=O)c1ccc(C23CC4CC(CC(C4)C2)C3)cc1)C(=O)N(C)Cc1ccco1` (stereo unspecified)?
Polio RdRp inh: 100; MbtI inh: -3; Mtb MenB inh: 2; Polio RdRp inh intensity: 103

How did CN(c1ccccc1)S(=O)(=O)c1cc2c3c(c1)CCC(=O)N3CCC2 do in these assays?
Polio RdRp inh: 99; MbtI inh: 9; Mtb MenB inh: 0; Polio RdRp inh intensity: 107

Results for OC(CCN1CCCCC1)(c1ccccc1)C1CCCCC1 (stereo unspecified) ?
Polio RdRp inh: 99&100; MbtI inh: -4&-24; Mtb MenB inh: -15&6; Polio RdRp inh intensity: 98&102

What do the screens show for `CCCNC(=O)Cn1cc(S(=O)(=O)N2CCCC2)c(S(=O)(=O)N2CCCC2)c1`?
Polio RdRp inh: 97; MbtI inh: 2; Mtb MenB inh: 10; Polio RdRp inh intensity: 103

Results for COc1cc2nc(SCc3ccc(F)cc3)n3nc(-c4ccccc4)nc3c2cc1OC ?
Polio RdRp inh: 102; MbtI inh: 5; Mtb MenB inh: -16; Polio RdRp inh intensity: 108

How did CN(C)S(=O)(=O)c1ccc(N2CCCC2)c(C(=O)OCc2ccc(F)cc2)c1 do in these assays?
Polio RdRp inh: 101; MbtI inh: 7; Mtb MenB inh: -21; Polio RdRp inh intensity: 102

What do the screens show for `CC(C)N(C(=O)CSc1nnc(Cc2cccs2)n1CCc1ccccc1)C(C)C`?
Polio RdRp inh: 106; MbtI inh: -1; Mtb MenB inh: -9; Polio RdRp inh intensity: 104

Results for CCOC(=O)/C(C)=C1\NC(C)(C)Cc2ccccc21 ?
Polio RdRp inh: 102; MbtI inh: 31; Mtb MenB inh: -18; Polio RdRp inh intensity: 102

How did N#Cc1cccc(CSc2nc(NC3CC3)c3ccccc3n2)c1 do in these assays?
Polio RdRp inh: 100; MbtI inh: 15; Mtb MenB inh: -42; Polio RdRp inh intensity: 101

Results for Cc1cccc(OCC(=O)NCC(=O)n2nc(C)cc2C)c1 ?
Polio RdRp inh: 101; MbtI inh: -9; Mtb MenB inh: -2; Polio RdRp inh intensity: 101

Results for NCC1OCCc2ccccc21 (stereo unspecified) ?
Polio RdRp inh: 102; MbtI inh: -18; Mtb MenB inh: -1; Polio RdRp inh intensity: 102

Results for COc1ccc(OCCN2C(=O)CNC2=S)cc1 ?
Polio RdRp inh: 98; MbtI inh: -3; Mtb MenB inh: -28; Polio RdRp inh intensity: 102

What do the screens show for `Cc1cccc(NC(=O)C2C3CC/C=C\CCC32)c1` (stereo unspecified)?
Polio RdRp inh: 103; Mtb MenB inh: -12; Polio RdRp inh intensity: 110

How did Cc1cc(-c2nnc(-c3ccc(Cl)cc3)o2)no1 do in these assays?
Polio RdRp inh: 106; MbtI inh: -18; Mtb MenB inh: 3; Polio RdRp inh intensity: 101

What do the screens show for `Cc1ccc(C(=O)OCC(=O)/C=C2\N(C)c3ccccc3C2(C)C)cc1NC(=O)c1ccco1`?
Polio RdRp inh: 108; MbtI inh: 62; Mtb MenB inh: -32; Polio RdRp inh intensity: 109

What do the screens show for `CCN(CC)C(=O)c1ccc2c(c1)OCO2`?
Polio RdRp inh: 102; Mtb MenB inh: -13; Polio RdRp inh intensity: 104

What do the screens show for `CCc1cc(-c2n[nH]c(C)c2-c2nc3ccccc3n2C)c(O)cc1O`?
Polio RdRp inh: 106; Mtb MenB inh: -22; Polio RdRp inh intensity: 109

What do the screens show for `COc1ccc(S(=O)(=O)Nc2ccccc2C(=O)N2CCCCC2)cc1`?
Polio RdRp inh: 102; MbtI inh: 7; Mtb MenB inh: -4; Polio RdRp inh intensity: 95

Results for CCn1c2ccccc2c2cc(NS(=O)(=O)c3cccs3)ccc21 ?
Polio RdRp inh: 110; MbtI inh: -12; Mtb MenB inh: -29; Polio RdRp inh intensity: 117

Results for O=C(Cc1ccc(N2CCCC2=O)cc1)Nc1ccc(-c2nnc3n2CCCCC3)cc1 ?
Polio RdRp inh: 101; MbtI inh: -10; Mtb MenB inh: -31; Polio RdRp inh intensity: 110

What do the screens show for `CC1(C)CC(=O)C2=C(C1)NC(=O)CC2c1ccccc1` (stereo unspecified)?
Polio RdRp inh: 100; MbtI inh: 11; Mtb MenB inh: -1; Polio RdRp inh intensity: 101

The last 5 entries of the section before lead into the next:
What do the screens show for `CCc1cc(-c2n[nH]c(C)c2-c2nc3ccccc3n2C)c(O)cc1O`?
Polio RdRp inh: 106; Mtb MenB inh: -22; Polio RdRp inh intensity: 109

What do the screens show for `COc1ccc(S(=O)(=O)Nc2ccccc2C(=O)N2CCCCC2)cc1`?
Polio RdRp inh: 102; MbtI inh: 7; Mtb MenB inh: -4; Polio RdRp inh intensity: 95

Results for CCn1c2ccccc2c2cc(NS(=O)(=O)c3cccs3)ccc21 ?
Polio RdRp inh: 110; MbtI inh: -12; Mtb MenB inh: -29; Polio RdRp inh intensity: 117

Results for O=C(Cc1ccc(N2CCCC2=O)cc1)Nc1ccc(-c2nnc3n2CCCCC3)cc1 ?
Polio RdRp inh: 101; MbtI inh: -10; Mtb MenB inh: -31; Polio RdRp inh intensity: 110

What do the screens show for `CC1(C)CC(=O)C2=C(C1)NC(=O)CC2c1ccccc1` (stereo unspecified)?
Polio RdRp inh: 100; MbtI inh: 11; Mtb MenB inh: -1; Polio RdRp inh intensity: 101

What do the screens show for `O=C(Nc1ccc2c(c1)nc1n2CCN(Cc2ccccc2)C1)C1CCCCC1`?
Polio RdRp inh: 103; MbtI inh: 28; Mtb MenB inh: -9; Polio RdRp inh intensity: 100

Results for COc1cc(Cl)c(NC(=O)c2cc(C)[nH]n2)c(OC)c1 ?
Polio RdRp inh: 99; MbtI inh: inactive; Mtb MenB inh: -22; Polio RdRp inh intensity: 102

What do the screens show for `O=C(CN(CCc1ccccc1)S(=O)(=O)c1ccc(Br)cc1)NC1CC1`?
Polio RdRp inh: 101; MbtI inh: -9; Mtb MenB inh: -10; Polio RdRp inh intensity: 99

What do the screens show for `COc1ccc(N(C(C)=O)S(=O)(=O)c2ccc(F)cc2)cc1`?
Polio RdRp inh: 98; MbtI inh: -9; Mtb MenB inh: 8; Polio RdRp inh intensity: 102

Results for O=C(O)c1ccccc1Sc1ncnc2sccc12 ?
Polio RdRp inh: 96; MbtI inh: 6; Mtb MenB inh: -17; Polio RdRp inh intensity: 101

What do the screens show for `CCCCc1nc2ccccc2c(=O)n1-c1ccc(C)cc1`?
Polio RdRp inh: 101; MbtI inh: -4; Mtb MenB inh: 5; Polio RdRp inh intensity: 102

What do the screens show for `Cn1c(C(C#N)C(=O)COc2ccc(Cl)cc2)nc2ccccc21` (stereo unspecified)?
Polio RdRp inh: 102; MbtI inh: 24; Mtb MenB inh: -18; Polio RdRp inh intensity: 108

What do the screens show for `NS(=O)(=O)c1ccc(CCNC(=O)c2cc3c(s2)-c2ccccc2OC3)cc1`?
Polio RdRp inh: 101; MbtI inh: 103; Mtb MenB inh: 0; Polio RdRp inh intensity: 102

What do the screens show for `O=C1NC(=O)C(Nc2ccccc2Cl)S1` (stereo unspecified)?
Polio RdRp inh: 100; MbtI inh: -52; Mtb MenB inh: -14; Polio RdRp inh intensity: 102

What do the screens show for `Cc1c(Nc2ncnc3c2cnn3C)c(=O)n(-c2ccccc2)n1C`?
Polio RdRp inh: 99; MbtI inh: 17; Mtb MenB inh: 6; Polio RdRp inh intensity: 100

How did COc1ccc(C(CC#N)C(C)C)cc1 (stereo unspecified) do in these assays?
Polio RdRp inh: 101; MbtI inh: -5; Mtb MenB inh: -7; Polio RdRp inh intensity: 102

How did O=C(c1nnc(Cc2ccc(F)cc2Cl)o1)N1CCCC1 do in these assays?
Polio RdRp inh: 103; MbtI inh: -9; Mtb MenB inh: 1; Polio RdRp inh intensity: 103

How did CCOc1ccccc1NC(=O)c1cc(=O)[nH]c2ccccc12 do in these assays?
Polio RdRp inh: 101; MbtI inh: -8; Mtb MenB inh: -42; Polio RdRp inh intensity: 98

Results for Cc1[nH]c2ccccc2c1C(=O)CN1CCN(S(=O)(=O)/C=C/c2ccccc2)CC1 ?
Polio RdRp inh: 104; MbtI inh: 3; Mtb MenB inh: -25; Polio RdRp inh intensity: 99

What do the screens show for `CCN(CC)CN1C(=O)C2C3c4ccccc4C(c4ccccc43)C2C1=O` (stereo unspecified)?
Polio RdRp inh: 99; MbtI inh: -18; Mtb MenB inh: 22; Polio RdRp inh intensity: 103

What do the screens show for `NCCc1nc2cc(C(F)(F)F)ccc2s1`?
Polio RdRp inh: 101; MbtI inh: 2; Mtb MenB inh: -36; Polio RdRp inh intensity: 91

Results for O=C(Cn1cnc2c(nc3n2CCCCC3)c1=O)N1CCCc2ccccc21 ?
Polio RdRp inh: 103; MbtI inh: -3; Mtb MenB inh: -10; Polio RdRp inh intensity: 104

Results for N#Cc1c2c(c(N3CCCCC3)n3c1nc1ccccc13)CCC2 ?
Polio RdRp inh: 110; MbtI inh: -5; Mtb MenB inh: -11; Polio RdRp inh intensity: 111
